Env fusion inh – blocks HIV Env-driven cell-cell fusion | HeLa-JRFL Env/CEM21 cell fusion, luciferase | inhibition, % at 12.3 µM | 360,000 tested, 1.1% active;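 active = mean replicate inhibition score of at least 50 and every replicate individually at or above 50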;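 also: 0% = plate neutral controls and 100% = maraviroc near 300 nM; one replicate is shown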
MT1-MMP act inh – inhibitors of human MT1-MMP activation. P50281. HT1080 RFP-PRO-GFP cells, GFP/RFP ratio fluorescence, overnight; percent of plate control window, DMSO zero. GFP/RFP ratio change, % at 20 µM. 360,000 tested, 0.061% active. AID 651647;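 active = GFP/RFP ratio change of at least 30% with cell ATP level not reduced by more than half and red fluorescence within 50% of control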; also: strong numbers were not always called active
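Material: RFP-PRO-GFP reporter HT1080 cells. Dosing: single-point 20 µM compound, 1% DMSO. Controls: DMSO and RFP-L50D-GFP cell wells. Timing: cells overnight before dosing, compound overnight, 37 °C, 5% CO2. Measure: GFP/RFP fluorescence ratio.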
CSC inhib – cancer stem cell inhibition; inhibition, % at 7.5 µM; 300,000 tested, 1.1% active; cancer stem cell-like cells viability, luminescence;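 active = mean at 75% or more and at least half the replicates too; tested in HMLE shEcad cells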;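 also: 0% = median of negative and 100% = median of positive control wells; the first replicate is given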
Rce1 inhib – blocks yeast Ras-converting enzyme. Q03530. yeast membranes, quenched prenylated peptide cleavage fluorescence. calls only. 290,000 tested, 0.27% active;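 active = fall in fluorescence gain of 50% or more versus controls, with final raw signal at or below 3038400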;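 also: plate controls were neutral control wells for no effect and wells lacking membranes for full effect; tested at 10 µM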
Target sequence (Q03530 whole entry, looked up): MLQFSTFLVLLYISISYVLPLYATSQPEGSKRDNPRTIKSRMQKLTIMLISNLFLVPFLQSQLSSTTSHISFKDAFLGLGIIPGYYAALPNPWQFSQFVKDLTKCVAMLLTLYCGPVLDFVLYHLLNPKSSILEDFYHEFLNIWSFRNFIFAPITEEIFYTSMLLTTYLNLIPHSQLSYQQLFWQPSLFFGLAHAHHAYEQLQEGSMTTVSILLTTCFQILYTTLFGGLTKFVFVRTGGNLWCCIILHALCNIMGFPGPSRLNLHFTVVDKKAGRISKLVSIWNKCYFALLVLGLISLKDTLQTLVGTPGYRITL
eIF4H FP inh – inhibitors of RNA binding by human eIF4H | Q15056 | AID 2012 | 290,000 tested, 0.94% active | eIF4H fluorescence polarization binding assay | inhibition, % at 35 µM;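 active = 50% or more with normal probe brightness, or confirmed in later tests; about a fifth of its hits are not listed in these tables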;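 also: calls also rest on retests at 20 µM and on dose response follow-up; 0% = protein and probe with vehicle and 100% = probe without protein; strong numbers were not always called active; many hits fall short of the cut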
PABP FP inh – PABP-poly(A) binding inhibition. P11940. PABP-poly(A) RNA binding, fluorescence polarization. inhibition, % at 35 µM. 290,000 tested, 1% active. AID 2014;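 active = 50% or more with normal probe brightness, or confirmed in later tests; about a fifth of its hits are not listed in these tables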;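 also: calls also rest on retests at 20 µM and on dose response follow-up; controls were probe without protein and protein plus probe with vehicle; some compounds called inactive have numbers as strong as hits; many hits fall short of the cut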
UUG fidelity – yeast start codon fidelity modulation; activity score, % at 18.7 µM; 350,000 tested, 0.13% active; S. cerevisiae UUG-firefly luciferase reporter, luminescence/redox ratio;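 active = replicate mean at a twofold rise or more, about +100% in these data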;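 also: firefly luciferase made from a UUG start codon reports start codon fidelity; reporter light over untreated wells divided by growth signal over untreated wells; some hits fall short of that in this replicate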
eIF4H FP inh retest – further read-out of eIF4H FP inh, marked with its call; inhibition, %; compound at 20 µM; confirmation average;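 mean of two retest wells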
PABP FP inh retest – recorded beside PABP FP inh, whose call it bears; inhibition, %; compound at 20 µM; confirmation repeats;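 mean of two retest wells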
MT1-MMP act inh RFP – recorded beside MT1-MMP act inh, whose call it bears; RFP signal change, %; measured here: RFP expression control read;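 0 = vehicle wells; hits needed this value within 50% of zero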
* hit, by the source's call; i = inactive; x = not tested or not shown; + = active, no number.

SMILES	Env fusion inh	MT1-MMP act inh	MT1-MMP act inh RFP	CSC inhib	Rce1 inhib	eIF4H FP inh	PABP FP inh	UUG fidelity	others
CNS(=O)(=O)c1cccc(C(=O)NCC2(N3CCCCC3)CCCCC2)c1	-20	-2	-1	1	x	12	23	0
Cc1c2c(nc3c(C)cccc13)OC(C)C2 (stereo unspecified)	x	-3	4	-14	i	4	5	-4
S=c1nc[nH]c2c1sc1nc(-c3ccccc3)c3c(c12)CCCC3	1	-4	-2	34	i	9	19	x
CN(N)c1nc2ccccc2nc1C(F)(F)F	18	0	-3	12	i	2	-3	x
COc1cc(-c2nc3ccccn3c2NCC2CCCO2)ccc1O (stereo unspecified)	-89	6	4	-10	+	-7	-1	-5
COc1ccc(C(=O)NCC(=O)OCn2nnc3ccccc3c2=O)cc1OC	x	x	x	-2	i	3	-2	x
CC(=O)Nc1ccc(S(=O)(=O)NCC(=O)OCC(=O)NCCc2ccccc2)cc1	-4	-3	3	x	x	x	x	-5
Cc1cc(=O)oc2cc(OCC(=O)NC3(C#N)CCCCC3)ccc12	17	-4	1	x	x	x	x	-24
COC(=O)CSC1=C(C#N)C(=O)NC2(CCCCC2)S1	2	-2	-10	-14	i	-16	-4	x
C(=C\c1ccccc1)/CN1CCN(C(c2ccccc2)c2ccccc2)CC1	0	-9	-12	x	i	-8	-8	-21
CCOc1ccc(NC(=O)c2csc3c2CCCC3)cc1	-172	-1	-4	10	i	-3	0	-22
Cc1cccc(C(=O)NCc2nnc(SCC(=O)Nc3nncs3)n2C)c1	3	3	3	x	i	-10	11	-10
c1ccc2c(c1)nc(-c1ccncc1)n1nnnc21	x	-3	-5	-8	i	-4	2	-27
Cn1ccc2cc(NC(=O)Nc3cccnc3)ccc21	17	0	0	-11	i	x	x	12
C=CCn1cc(C(C)=O)c(=O)[nH]c1=O	12	15	4	-5	i	-3	-19	x
O=C(CCCn1c(=S)[nH]c2ccsc2c1=O)Nc1ccc2c(c1)OCCO2	-2	0	-1	-3	i	0	8	-45
Cn1c(=O)c2cc(NC(=S)NC3CCCCC3)ccc2n1Cc1ccc(F)cc1	-3	5	-4	x	x	x	x	-26
O=C(COC(=O)c1ccc(Br)cc1)NCc1ccc(F)cc1	9	2	3	-12	i	-12	36	-17
CCCC(=O)NCC(c1cccs1)S(=O)(=O)c1ccc(C)cc1 (stereo unspecified)	-13	16	1	-9	i	-1	5	-5
CN1CCN(C(=O)c2ccc(N3CCCC3=O)cc2)CC1	-9	0	2	x	i	-12	0	8
CCOC(=O)NC1(C(F)(F)F)NC(=O)N(C2CCCCC2)C1=O (stereo unspecified)	x	7	2	-6	i	1	-5	x
CN(C)S(=O)(=O)c1cccc(NC(=O)CSc2nnnn2-c2ccccc2)c1	2	-3	-15	-8	i	-11	-9	4
COC(=O)c1cc(C(=O)OC)cc(-n2c(C)cc(C(=O)CC#N)c2C)c1	x	-8	2	-5	i	59*	87*	x
CC[C@@H](NCCCn1cnc2c(SC)ncnc21)c1ccccc1	13	-2	-2	x	x	x	x	-6
COc1cc(/C=N/NC(=O)CCn2cnc(-c3ccccc3)c2-c2ccccc2)ccc1O	22	2	-3	8	i	-10	-23	x

Structures above with a CF3 group:
SMILES	Env fusion inh	MT1-MMP act inh	MT1-MMP act inh RFP	CSC inhib	Rce1 inhib	eIF4H FP inh	PABP FP inh	UUG fidelity	others
CN(N)c1nc2ccccc2nc1C(F)(F)F	18	0	-3	12	i	2	-3	x
CCOC(=O)NC1(C(F)(F)F)NC(=O)N(C2CCCCC2)C1=O (stereo unspecified)	x	7	2	-6	i	1	-5	x

(listing goes on)
SMILES	Env fusion inh	MT1-MMP act inh	MT1-MMP act inh RFP	CSC inhib	Rce1 inhib	eIF4H FP inh	PABP FP inh	UUG fidelity	others
CN1CCN(C(=S)NC(=O)c2ccc(-c3ccccc3)cc2)CC1	6	3	4	-7	i	-7	0	x
CCc1ccc(CN(C)C(=O)c2cc(S(=O)(=O)N3CCOCC3)ccc2N2CCCC2)cc1	6	2	-5	-3	i	x	x	9
COc1ccc(-n2c(=S)[nH]c3[nH]ncc3c2=O)cc1	13	1	-3	-1	i	-10	4	-2
Cc1cc(Cl)ccc1N(CC(=O)NCc1ccccc1)S(C)(=O)=O	6	-1	0	-8	i	-4	10	2
COc1ccc(OC)c(CCNC(=O)CCc2nnc3ccc(N4CCCCC4)nn23)c1	0	1	0	1	i	-7	-1	x
O=C(O)C1CCC(=O)N(C2CCCCC2)C1c1ccccc1Cl (stereo unspecified)	-7	-4	4	11	i	6	3	-23
COc1ccc(CC2(CO)CCN(Cc3cccc(OC)c3OC)CC2)cc1	7	0	2	-4	i	-12	-22	-12
CCOC(=O)c1ccc([N+](=O)[O-])c(CS(=O)(=O)c2ccc(Cl)cc2)c1	9	1	3	-1	i	7	14	-3
COc1ccc(CCC(=O)Nc2ccc(S(=O)(=O)Nc3ncccn3)cc2)cc1	-2	-1	7	-15	x	x	x	-6
NC(=O)C1CCN(C(=O)c2cc(-c3ccccc3Cl)nc3ccccc23)CC1	2	1	2	1	x	x	x	-3
Cc1ccc(F)cc1-c1cc(C(=O)NCc2cc(C(F)(F)F)cc(C(F)(F)F)c2)[nH]n1	-8	3	6	x	x	x	x	-9
CCOc1ccc(N(CC(=O)NC2CCCC2)C(=O)c2ccc(C)s2)cc1	-1	-2	-4	-3	i	32	38	2
COc1c(O)cnn(-c2ccccc2)c1=O	-5	-1	6	-6	i	-6	-9	x
O=C1NCCN1C(=O)C12CC3CC(CC(C3)C1)C2	x	2	-2	3	i	-15	-5	-11
O=C(N/C(=C/c1ccccc1Cl)C(=O)N1CCCC1)c1ccccc1	-3	-10	-4	-10	i	-3	-1	x
c1ccc(-c2nc(C3CCCCC3)c3sccc3n2)cc1	16	5	0	39	i	x	x	-15
CC(C)C[C@@H](CO)N(Cc1ccccc1)S(=O)(=O)N(Cc1ccccc1)[C@@H](CO)CC(C)C	x	-3	-29	126*	x	x	x	-5
CCn1c(CC(=O)Nc2ccccc2C)nnc1SCC(=O)Nc1nncs1	-7	-1	2	x	i	2	-4	-17
Cc1occc1C(=O)Nc1cccc(C(F)(F)F)c1	25	9	1	1	i	0	1	-21
COc1ccc(CCN2CC(C(=O)NCCc3ncccc3C)CCC2=O)cc1 (stereo unspecified)	-16	1	4	x	x	x	x	-26
Cc1cc2nc(SCCN3CCCC3)[nH]c2cc1C	x	-17	0	-8	i	7	0	-14
O=c1cc(-c2ccccc2)nc2nc(SCc3ccccc3)[nH]n12	-17	2	0	2	i	-11	19	-13
CCOC(=O)C(O)C1CCc2c([nH]c3ccc(C)cc23)C1=O (stereo unspecified)	35	0	-1	-11	i	-1	-4	-7
CN(C)S(=O)(=O)c1ccc(N2CCCC2)c(C(=O)NCC2COc3ccccc3O2)c1 (stereo unspecified)	-2	-16	-4	-9	i	x	x	x
COC(=O)Nc1ncc(CN2CCCCC2)s1	-13	8	0	-4	i	2	-4	-22
Continuation:
SMILES	Env fusion inh	MT1-MMP act inh	MT1-MMP act inh RFP	CSC inhib	Rce1 inhib	eIF4H FP inh	PABP FP inh	UUG fidelity	others
O=C(c1ccc2snnc2c1)N1CCN(c2ccccc2)CC1	-11	2	3	0	x	0	3	x
CC(C)C1C(=O)N(Cc2cn(CCC3OCCO3)nn2)CCS(=O)(=O)N1Cc1ccc(-c2ccc(F)cc2Cl)cc1 (stereo unspecified)	13	1	-12	x	x	x	x	-13
CCOC(=O)C1=C(C)NC(SC)=NC1c1ccc(OC)cc1 (stereo unspecified)	x	-7	-4	x	i	-1	-9	-16
O=C1NC(c2cccc([N+](=O)[O-])c2)=CCN1c1ccccc1O	-4	0	0	x	i	3	-3	14
CCCC1CC(C)(C(=O)CSc2n[nH]c(-c3ccccc3)n2)OC1=O (stereo unspecified)	-5	4	0	-14	i	-2	12	-8
CCC(=O)N=c1sc2c(OC)ccc(OC)c2n1C	-28	-3	2	-17	i	x	x	-27
Cc1cccc(N2CC(C(=O)Nc3ccc(N4CCOCC4)cc3)CC2=O)c1C (stereo unspecified)	x	-2	-1	-7	x	x	x	-21
O=C1CC(N2CCOCC2)C(=O)N1c1ccccc1Cl (stereo unspecified)	-19	0	8	3	i	-2	-2	-17
COc1cccc(/C=N/NC(=O)CN(C)S(=O)(=O)c2ccccc2)c1OC	x	0	1	-9	x	x	x	-6
CSC1=NCCN1S(=O)(=O)c1ccc(C)cc1	2	-5	0	-4	i	-4	-8	x
CCOC(=O)NN1C(=O)c2ccccc2NC1(C)C	-2	-2	1	-15	i	-7	-2	-2
CCOC(=O)c1c(C)[nH]c(C)c1C(=O)COC(=O)/C=C/c1cccc(C(F)(F)F)c1	x	1	5	8	i	11	-9	-10
Cc1nn(C)c2c(=O)c(=O)c2n(C)[nH]1	-2	4	6	-8	i	-5	-4	x
CCc1nonc1NC(=O)c1oc2cc(C)c(Cl)cc2c1C	0	-3	-1	x	i	1	18	31
CCc1nn2c(=O)cc(COc3cccc(NC(=O)c4ccco4)c3)nc2s1	0	0	2	-11	i	73	11	-25	eIF4H FP inh retest=9;PABP FP inh retest=12
O=C(NC1CCCCC1)c1cccc2c1C(=O)c1ccc(N3CCC(Cc4ccccc4)CC3)cc1S2(=O)=O	16	-119	-3	x	x	x	x	-12
CC(=O)Nc1ccc(Oc2nc(-c3cccnc3)nc3sc4c(c23)CCCC4)cc1	x	-1	3	-13	i	x	x	-12
CC1CC(C)CN(S(=O)(=O)c2ccc(C(=O)NCc3ccco3)cc2)C1 (stereo unspecified)	10	0	-1	4	i	-5	5	-9
CCOC(=O)c1c(-c2ccc(C)cc2C)csc1NC(=O)CSc1nnnn1C	x	-8	-16	-9	i	2	4	-10

Among those listed so far, 9 have two or more sulfur atoms:
SMILES	Env fusion inh	MT1-MMP act inh	MT1-MMP act inh RFP	CSC inhib	Rce1 inhib	eIF4H FP inh	PABP FP inh	UUG fidelity	others
S=c1nc[nH]c2c1sc1nc(-c3ccccc3)c3c(c12)CCCC3	1	-4	-2	34	i	9	19	x
COC(=O)CSC1=C(C#N)C(=O)NC2(CCCCC2)S1	2	-2	-10	-14	i	-16	-4	x
Cc1cccc(C(=O)NCc2nnc(SCC(=O)Nc3nncs3)n2C)c1	3	3	3	x	i	-10	11	-10
O=C(CCCn1c(=S)[nH]c2ccsc2c1=O)Nc1ccc2c(c1)OCCO2	-2	0	-1	-3	i	0	8	-45
CCCC(=O)NCC(c1cccs1)S(=O)(=O)c1ccc(C)cc1 (stereo unspecified)	-13	16	1	-9	i	-1	5	-5
CN(C)S(=O)(=O)c1cccc(NC(=O)CSc2nnnn2-c2ccccc2)c1	2	-3	-15	-8	i	-11	-9	4
CCn1c(CC(=O)Nc2ccccc2C)nnc1SCC(=O)Nc1nncs1	-7	-1	2	x	i	2	-4	-17
CSC1=NCCN1S(=O)(=O)c1ccc(C)cc1	2	-5	0	-4	i	-4	-8	x
CCOC(=O)c1c(-c2ccc(C)cc2C)csc1NC(=O)CSc1nnnn1C	x	-8	-16	-9	i	2	4	-10

From PubChem
